# Assay outcomes (PubChem)
# FGF22 binding: binders of human FGF22 protein, primary screen, FGF22 synaptogenesis inhibitor project, biophysical, thermal shift, single point | Fibroblast growth factor 22 (Homo sapiens), Q9HCT0 | recombinant FGF22 thermal shift, SYPRO orange fluorescence; percent of sucrose octasulfate shift, DMSO zero | calls only at 9.99 µM | 1.5% of 340,000 active | AID 651658, 2012;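 active means melting point raised past a set limit in the mean and every replicate; three in four hits are not shown here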
# Target sequence (Q9HCT0 whole entry, looked up): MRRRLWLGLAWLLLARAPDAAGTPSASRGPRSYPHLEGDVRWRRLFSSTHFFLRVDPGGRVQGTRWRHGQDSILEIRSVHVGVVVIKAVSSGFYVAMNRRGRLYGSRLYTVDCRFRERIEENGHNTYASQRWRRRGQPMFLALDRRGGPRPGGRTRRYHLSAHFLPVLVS
# Ecoli rRNA inh: reduced GFP signal of wild-type E. coli, primary screen, bacterial rRNA inhibitor project, GFP/RFP fluorescence, OD600, single point; E. coli WT GFP vs humanized-ribosome RFP mutants, 24 h; active compounds read low; DMSO median 0, no signal -100; GFP signal change (wild-type ribosome), % (test concentration not listed); 1.6% of 350,000 active;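 active means significant combined selectivity score with lowered wild-type GFP, culture density cut under 30%, mutant RFP and density less affected; inactive means any of these conditions unmet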; further: one replicate is shown; some compounds called inactive have numbers as strong as hits
# Ecoli rRNA inh OD600: second read-out of Ecoli rRNA inh, no call of its own (marks repeat the call); OD600 change, %; measured here: OD600 growth;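 optical density of the mix in the first replicate; 0 = DMSO median and -100 = no signal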
# Ecoli rRNA inh RFP: second read-out of Ecoli rRNA inh, no call of its own (marks repeat the call); RFP signal change, %; measured here: RFP humanized mutant strains;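 first replicate; 0 = DMSO median and -100 = no signal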
# Starred values were filed as active, the others as inactive; i = inactive.
# A first look, seven compounds:
SMILES,FGF22 binding,Ecoli rRNA inh,Ecoli rRNA inh OD600,Ecoli rRNA inh RFP
Cc1noc(C)c1NC(=O)Nc1ccc2c(c1)C(=O)N([C@H](C)CO)C[C@H](C)[C@@H](CN(C)Cc1ccc(C(=O)O)cc1)OCCCC[C@@H](C)O2,i,-0.2,1.9,-2.0
COc1ccc(NC(=O)N(C)C[C@H]2Oc3ccc(NC(=O)Nc4c(C)noc4C)cc3C(=O)N([C@@H](C)CO)C[C@@H]2C)cc1,i,2.2,-2.9,-4.8
CNC(=O)C[C@H]1CC[C@H]2[C@@H](COc3ccc(NC(=O)Cc4cccs4)cc3C(=O)N2C)O1,i,0.4,-5.9,-1.6
C[C@@H]1CCCCO[C@@H](CN(C)Cc2ccc(C(F)(F)F)cc2)[C@H](C)CN([C@@H](C)CO)C(=O)c2cc(NC(=O)Nc3cccc4ccccc34)ccc2O1,i,2.7,9.0,-0.9
O=S(=O)(c1ccc(F)cc1)N1CC[C@@H]2[C@H](CO)Nc3ccc(-c4ccc(F)cc4)cc3[C@@H]21,i,-3.3,-46.8,11.1
C[C@@H]1CCCCO[C@@H](CN(C)C(=O)CCCN(C)C)[C@@H](C)CN([C@H](C)CO)C(=O)c2cc(NC(=O)c3ccncc3)ccc2O1,i,3.6,9.8,0.9
COc1cccc(S(=O)(=O)N2CC[C@@H]3[C@H]2c2cc(Br)ccc2N[C@@H]3CO)c1,i,-5.7,-1.0,-1.2

# Results, previewed entries included:
SMILES,FGF22 binding,Ecoli rRNA inh,Ecoli rRNA inh OD600,Ecoli rRNA inh RFP
Cc1noc(C)c1NC(=O)Nc1ccc2c(c1)C(=O)N([C@H](C)CO)C[C@H](C)[C@@H](CN(C)Cc1ccc(C(=O)O)cc1)OCCCC[C@@H](C)O2,i,-0.2,1.9,-2.0
COc1ccc(NC(=O)N(C)C[C@H]2Oc3ccc(NC(=O)Nc4c(C)noc4C)cc3C(=O)N([C@@H](C)CO)C[C@@H]2C)cc1,i,2.2,-2.9,-4.8
CNC(=O)C[C@H]1CC[C@H]2[C@@H](COc3ccc(NC(=O)Cc4cccs4)cc3C(=O)N2C)O1,i,0.4,-5.9,-1.6
C[C@@H]1CCCCO[C@@H](CN(C)Cc2ccc(C(F)(F)F)cc2)[C@H](C)CN([C@@H](C)CO)C(=O)c2cc(NC(=O)Nc3cccc4ccccc34)ccc2O1,i,2.7,9.0,-0.9
O=S(=O)(c1ccc(F)cc1)N1CC[C@@H]2[C@H](CO)Nc3ccc(-c4ccc(F)cc4)cc3[C@@H]21,i,-3.3,-46.8,11.1
C[C@@H]1CCCCO[C@@H](CN(C)C(=O)CCCN(C)C)[C@@H](C)CN([C@H](C)CO)C(=O)c2cc(NC(=O)c3ccncc3)ccc2O1,i,3.6,9.8,0.9
COc1cccc(S(=O)(=O)N2CC[C@@H]3[C@H]2c2cc(Br)ccc2N[C@@H]3CO)c1,i,-5.7,-1.0,-1.2
COc1ccc(NC(=O)Nc2ccc3c(c2)C(=O)N([C@H](C)CO)C[C@@H](C)[C@@H](CN(C)S(=O)(=O)c2ccc(F)cc2)O3)cc1,i,-1.1,-7.2,-0.7
O=C(NC1CCCC1)c1nc(-c2c(F)cccc2F)oc1-c1ccccc1,i,1.4,13.8,0.3
COc1ccc(CN2CC3(CN(S(=O)(=O)c4ccc(C)cc4)C3)c3c([nH]c4cc(OC)ccc34)[C@H]2CO)cc1,i,-8.2,-11.7,-3.9
COCc1cc(N2CCN(C(=O)OC(C)(C)C)C[C@H]2C)ccc1N1CCS(=O)(=O)CC1,i,10.9,3.7,5.8
CCCN1CCCCC(NC(=O)c2ccc3ccccc3c2)C1=O (configuration not stated),i,-6.5,-4.2,3.5
Cc1ccc(S(=O)(=O)Nc2ccc3c(c2)C(=O)N([C@H](C)CO)C[C@@H](C)[C@@H](CN(C)C(=O)c2ccncc2)OCCCC[C@@H](C)O3)cc1,i,-1.4,-8.1,-0.4
Cc1cc(NC(=O)Cc2cn(C)c3ccccc23)ccc1Oc1cccnc1,i,-14.1,-38.3,-0.9
COc1ccc(NC(=O)Nc2ccc3c(c2)C(=O)N([C@H](C)CO)C[C@H](C)[C@@H](CN(C)C(=O)CCC(F)(F)F)OCCCC[C@@H](C)O3)cc1,i,2.1,1.3,-2.3
O=C(C[C@@H]1CC[C@@H]2NC[C@@H](O)COC[C@H]2O1)Nc1nccs1,i,3.0,2.4,-1.0
COc1ccc(C2CC(=O)C(c3cccc(F)c3)=CN2Cc2ccccc2)cc1 (configuration not stated),i,-0.5,5.5,-0.6
Cc1noc(C)c1S(=O)(=O)N(C)C[C@@H]1OCCCC[C@@H](C)Oc2ccc(NS(=O)(=O)c3ccc(F)cc3)cc2C(=O)N([C@H](C)CO)C[C@H]1C,i,0.5,-4.6,0.7
CN1C(=O)c2cc(NC(=O)c3cscn3)ccc2OC[C@@H]2O[C@H](CC(=O)NCC3CC3)CC[C@@H]21,i,2.8,-2.2,-1.2
Cc1nn(C)cc1NC(=O)C[C@H]1CC[C@H]2[C@H](COc3ccc(NC(=O)C(C)C)cc3C(=O)N2C)O1,i,1.6,3.4,-1.3
C[C@H]1CN([C@@H](C)CO)C(=O)Cc2cc(NS(=O)(=O)c3cccs3)ccc2O[C@@H]1CN(C)Cc1ccncc1,i,-1.6,-3.4,5.4
COCC(=O)N1CC[C@@H]2[C@H](CO)Nc3ccc(-c4ccc(C#N)cc4)cc3[C@@H]21,i,7.0,2.7,0.1
C[C@H](CO)N1C[C@H](C)[C@@H](CN(C)C(=O)CCC(F)(F)F)OCCCC[C@H](C)Oc2ccc(NC(=O)c3ccncc3)cc2C1=O,i,-4.3,-4.5,-0.5
COc1ccc(S(=O)(=O)Nc2ccc3c(c2)C(=O)N([C@@H](C)CO)C[C@@H](C)[C@@H](CN(C)C(=O)Nc2ccccc2)OCCCC[C@H](C)O3)cc1,i,-3.1,-8.2,0.4
COC(=O)C1=C(C)N(Cc2cccc(C(F)(F)F)c2)C(=NCc2cc(OC)c(OC)c(OC)c2)NC1c1cccc(C(F)(F)F)c1 (configuration not stated),i,-47.6,-82.2,-16.1

# Reprinted from the part before: two entries, then new ones.
SMILES,FGF22 binding,Ecoli rRNA inh,Ecoli rRNA inh OD600,Ecoli rRNA inh RFP
COc1ccc(S(=O)(=O)Nc2ccc3c(c2)C(=O)N([C@@H](C)CO)C[C@@H](C)[C@@H](CN(C)C(=O)Nc2ccccc2)OCCCC[C@H](C)O3)cc1,i,-3.1,-8.2,0.4
COC(=O)C1=C(C)N(Cc2cccc(C(F)(F)F)c2)C(=NCc2cc(OC)c(OC)c(OC)c2)NC1c1cccc(C(F)(F)F)c1 (configuration not stated),i,-47.6,-82.2,-16.1
COc1ccc(N2C[C@@]3(O)CC[C@@H](O)[C@@H](OC)[C@@H]3[C@@](C)(O)[C@@H]2CC=C(C)C)cc1,i,7.0,15.9,-0.3
Cc1nn(C)cc1NC(=O)C[C@@H]1CC[C@@H]2[C@@H](COc3ccc(NC(=O)C(C)C)cc3C(=O)N2C)O1,i,-16.7,16.4,6.2
C[C@H]1CN([C@@H](C)CO)C(=O)Cc2cc(NC(=O)Nc3ccc(F)cc3)ccc2O[C@@H]1CN(C)C(=O)Nc1ccc(C(F)(F)F)cc1,i,1.7,-0.9,-0.6
Cc1cc(Nc2cc(Cl)cc(Cl)c2)cc(=O)n1-c1cc(Cl)cc(Cl)c1,i,2.5,2.8,1.8
CC(C)C(=O)Nc1ccc2c(c1)C(=O)N(C)[C@H]1CC[C@H](CC(=O)NCCCN(C)C)O[C@H]1CO2,i,2.6,5.9,-0.3
O=C(NCc1ccccc1)[C@@H]1CCCN1C(=O)[C@@H](NS(=O)(=O)c1ccc(F)cc1F)C1CCCCC1,i,-8.8,-12.9,0.7
COc1ccc(NC(=O)Nc2ccc3c(c2)CC(=O)N([C@H](C)CO)C[C@H](C)[C@H](CN(C)C(=O)Nc2c(C)noc2C)O3)cc1,i,4.1,7.8,-1.1
COc1ccc(S(=O)(=O)N(C)C[C@@H]2OCCCC[C@@H](C)Oc3ccc(NC(=O)Nc4ccccc4)cc3C(=O)N([C@@H](C)CO)C[C@H]2C)cc1,i,-0.2,7.0,-0.5
C[C@@H]1ON(C)[C@H]2C[C@H]3c4cc(Nc5ccccc5)ccc4CCN3C[C@@H]12,i,7.3,1.7,2.1
C[C@@H]1CN([C@H](C)CO)C(=O)c2cc(NS(=O)(=O)c3ccc(F)cc3)ccc2O[C@@H](C)CCCCO[C@H]1CN(C)C(=O)Nc1ccc(F)cc1,i,-4.1,-3.3,-0.7
Cc1ccc(S(=O)(=O)Nc2ccc3c(c2)CC(=O)N([C@@H](C)CO)C[C@H](C)[C@H](CN(C)S(=O)(=O)c2ccccc2)O3)cc1,i,4.0,1.9,0.8
COc1cccc(C(=O)Nc2ccc3c(c2)C(=O)N(C)[C@H]2CC[C@@H](CC(=O)NCc4ccc(F)cc4)O[C@H]2CO3)c1,i,-5.6,-6.9,4.2
CCCNC(=O)[C@H]1[C@H](CO)[C@H]2Cn3c(ccc(-c4cccnc4)c3=O)[C@H]2N1C(=O)c1ccccc1F,i,2.6,2.1,-0.7
COCC(=O)Nc1ccc2c(c1)[C@@H]1C[C@@H](CC(=O)OC)O[C@H](CO)[C@@H]1O2,i,1.3,7.1,-2.4
Cc1noc(C)c1NC(=O)N(C)C[C@H]1OCCCC[C@H](C)Oc2ccc(NC(=O)Nc3cccc4ccccc34)cc2C(=O)N([C@H](C)CO)C[C@@H]1C,i,-5.7,2.6,-3.2
C[C@H](CO)N1C[C@H](C)[C@@H](CN(C)C(=O)c2ccncc2)OCCCC[C@H](C)Oc2ccc(NC(=O)CCC(F)(F)F)cc2C1=O,i,1.9,1.9,-1.9
C=CCN=C1NC(c2cccc(F)c2)C(C(=O)OC)=C(C)N1Cc1ccccc1C(F)(F)F (configuration not stated),i,-28.6,-55.0,17.6
O=S(=O)(c1ccccc1)N1[C@@H]2CNC[C@H]1C2c1ccc(-c2ccc(F)cc2)cc1 (some centres not stated),i,-58.3,-76.7,-9.2
Cc1cc(O)cc(=O)n1-c1ccc(OC(F)F)cc1,i,7.3,5.9,0.3
N#Cc1ccc(C2CC(OCCF)=CC(=O)O2)cc1 (configuration not stated),i,-0.1,-13.4,-1.3
CCCNC(=O)C[C@@H]1CC[C@@H]2[C@H](COc3ccc(NC(=O)c4cc(F)cc(F)c4)cc3C(=O)N2C)O1,i,0.1,-6.9,-0.1
COc1ccc(NC(=O)Nc2ccc3c(c2)C(=O)N([C@H](C)CO)C[C@H](C)[C@H](CN(C)S(=O)(=O)c2c(C)noc2C)OCCCC[C@H](C)O3)cc1,i,-1.4,-6.6,-1.2
CN1c2ccc(-c3cccc(C#N)c3)cc2[C@@H]2[C@@H](CCN2C(=O)C2CCC2)[C@@H]1CO,i,-41.2,-57.9,25.5
C=CCN1C(=O)c2n[nH]c(C(C)C)c2C1c1ccccc1 (configuration not stated),i,13.0,14.0,3.3
C[C@H](CO)N1C[C@H](C)[C@@H](CN(C)S(=O)(=O)c2cn(C)cn2)OCCCC[C@H](C)Oc2ccc(NC(=O)Cc3ccccc3)cc2C1=O,i,-2.2,-3.7,-2.0
# Other compounds
SMILES,FGF22 binding,Ecoli rRNA inh,Ecoli rRNA inh OD600,Ecoli rRNA inh RFP
O=C(N[C@H](C(=O)N1CCC[C@H]1C(=O)NCCc1ccccc1Cl)C1CCCCC1)c1cccs1,i,-22.8,-23.0,5.4
CC(C)(C)OC(=O)N1CCC2CCN(CCc3ccccc3)CC21 (configuration not stated),i,16.7,6.7,3.2
CN1C(=O)c2cc(NC(=O)Nc3ccccc3Cl)ccc2OC[C@@H]2O[C@@H](CC(=O)O)CC[C@@H]21,i,1.7,0.2,-0.1
CO[C@H]1CN(C)C(=O)c2cc(NC(=O)Nc3cccc(Cl)c3)ccc2OC[C@@H](C)N(C)C[C@@H]1C,i,-3.6,-2.2,5.8
CCCNC(=O)C[C@@H]1C[C@@H]2c3cc(NS(=O)(=O)c4ccccc4)ccc3O[C@@H]2[C@@H](CO)O1,i,-1.2,-0.7,-3.5
CN1CCCCC(NC(=O)c2cccc(F)c2)C1=O (configuration not stated),i,12.4,15.8,0.0
COC(=O)C[C@H]1CC[C@H]2[C@H](COc3ccc(NC(=O)c4ccccc4OC)cc3C(=O)N2C)O1,i,-3.9,-11.2,1.6
CCCNC(=O)C[C@@H]1CC[C@H]2[C@@H](COc3ccc(NC(=O)c4ccc(Cl)cc4)cc3C(=O)N2C)O1,i,-2.9,-1.4,-0.1
COc1ccc(CN(C)C[C@@H]2OCCCC[C@@H](C)Oc3ccc(NC(=O)Cc4ccccc4)cc3C(=O)N([C@@H](C)CO)C[C@H]2C)cc1,i,2.4,-3.4,-0.1
C[C@H]1CN(C(=O)OC(C)(C)C)CCN1c1ccc(Br)c(C#N)c1,i,-8.8,-8.7,-0.2
Cc1noc(C)c1NC(=O)N(C)C[C@@H]1OCCCC[C@H](C)Oc2ccc(NS(C)(=O)=O)cc2C(=O)N([C@@H](C)CO)C[C@H]1C,i,0.7,4.7,-1.9
C[C@@H]1CCCCO[C@@H](CN(C)C(=O)CCC(F)(F)F)[C@@H](C)CN([C@@H](C)CO)C(=O)c2cc(NS(=O)(=O)c3cccs3)ccc2O1,i,-3.7,-6.3,0.0
Cc1ccc(S(=O)(=O)N[C@H](CNCc2ccccc2)C(C)C)cc1,i,2.6,13.3,1.2
CN1c2ccc(-c3ccccc3F)cc2[C@H]2[C@H](CCN2C(=O)Nc2cc(F)ccc2F)[C@H]1CO,i,3.1,-17.8,28.2

# A portion of the library. The share of hits here may be higher or lower than overall.
